Mtb betalactam = beta-lactam sensitization of Mtb H37Rv | M. tuberculosis H37Rv growth with meropenem, percent inhibition; hits of this screen are not shown here | inhibition, % at 25 µM | actives 0.27% (n = 330,000);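 active = about 74% or more and at least 40 points above the plate without the antibiotic, then above 30% in a dose series; inconclusive = first-round hits that could not be retested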;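 note: growth measured after seven days incubation then overnight dye step; 0% = bacteria only wells and 100% = bacteria with antibiotic; twin plates without the antibiotic show which effects depend on it; some results filed as inactive read as strong as hits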
YopH PTP inh = blocks Yersinia enterocolitica YopH tyrosine phosphatase. AID 898. inhibition, %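 (about 10 µM by stock and volumes)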. actives 0.16% (n = 140,000). fluorescence Ex485/Em525;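 active = inhibition of 50% or more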;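 note: controls were vehicle for no effect and minimum signal wells for full effect; inactives centre near -20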
Mtb H37Rv = M. tuberculosis H37Rv growth inhibitors, H37Rv strain (AID 1626); M. tuberculosis H37Rv growth inhibition; higher % means a stronger effect; inhibition, % at 10 µM, or IC50 in µM where a hit was titrated; actives 0.95% (n = 220,000);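 active = confirmed in a dose series; inconclusive = inhibition above 80% but not taken into the dose series; inactive = below 80% or under 30% at every dose of the series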;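 note: bacteria incubated seven days before Alamar blue readout; 0% = bacteria only wells and 100% = bacteria with antibiotic wells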
Arbovirus inh = antivirals against arbovirus infection; inhibition, % at 10 µM; actives 0.37% (n = 200,000); arbovirus infection cell-based antiviral screen; AID 1251;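 active = inhibition from about 30%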;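 note: bluetongue infection of BSR cells; cell survival read as ATP light after 72 h; 0% = infected wells without compound and 100% = uninfected wells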
RecA intein inh = inhibitors of M. tuberculosis RecA intein splicing; P9WHJ3; cell-free RecA intein splicing, fluorescence; inhibition, %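 (about 9 µM by stock and volumes)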; actives 0.75% (n = 290,000); in the data active = inhibition above about 30%; inconclusive = no clear call, values can overlap the other calls;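 note: 0% = vehicle wells and 100% = reference inhibitor control wells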
Target sequence (P9WHJ3 whole entry, looked up): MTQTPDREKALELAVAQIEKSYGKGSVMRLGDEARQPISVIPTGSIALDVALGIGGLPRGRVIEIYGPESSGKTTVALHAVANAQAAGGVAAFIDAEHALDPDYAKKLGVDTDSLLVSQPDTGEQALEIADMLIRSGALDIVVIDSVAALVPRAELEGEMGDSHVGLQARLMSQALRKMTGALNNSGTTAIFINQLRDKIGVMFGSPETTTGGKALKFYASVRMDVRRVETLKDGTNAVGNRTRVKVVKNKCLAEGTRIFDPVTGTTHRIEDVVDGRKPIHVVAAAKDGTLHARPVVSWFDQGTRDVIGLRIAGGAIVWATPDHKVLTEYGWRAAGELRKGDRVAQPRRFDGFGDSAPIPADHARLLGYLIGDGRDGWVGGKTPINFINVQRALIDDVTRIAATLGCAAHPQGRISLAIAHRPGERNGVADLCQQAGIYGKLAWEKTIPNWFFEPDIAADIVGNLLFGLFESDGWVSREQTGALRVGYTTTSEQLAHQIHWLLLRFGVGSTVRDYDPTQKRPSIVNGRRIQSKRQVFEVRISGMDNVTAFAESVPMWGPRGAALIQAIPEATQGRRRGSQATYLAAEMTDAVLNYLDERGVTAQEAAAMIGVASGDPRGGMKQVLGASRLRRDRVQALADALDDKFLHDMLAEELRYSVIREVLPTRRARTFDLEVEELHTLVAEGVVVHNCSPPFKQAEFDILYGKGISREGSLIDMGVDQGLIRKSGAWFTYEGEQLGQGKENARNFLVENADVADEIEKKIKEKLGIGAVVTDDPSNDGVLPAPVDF
Arbovirus inh repeat = also measured in Arbovirus inh; calls as there; inhibition, %; measured here: 10K subset replicate screen; many hits read low in the repeat;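 first of two repeat runs on a subset; 0% = infected and 100% = uninfected wells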
Starred values were filed as active, the others as inactive.

Results for CCOc1ccc(NC(=O)C2CCC(C)(C(=O)O)C2(C)C)cc1 (stereo not given) ?
Mtb betalactam: -0.8; YopH PTP inh: -39.5; Mtb H37Rv: 15.0%; Arbovirus inh: 7.0; RecA intein inh: -2.9

What do the screens show for `COc1ccccc1NS(=O)(=O)c1cc(C(=O)NCC(c2ccc(F)cc2)N2CCOCC2)ccc1C` (stereo not given)?
Mtb betalactam: -13.1; RecA intein inh: 0.7

How did Cc1ccc(-c2nn(-c3ccccc3)cc2C2CC(c3cccs3)=NN2C(=O)CCC(=O)O)cc1 (stereo not given) do in these assays?
Mtb betalactam: -4.4; YopH PTP inh: 1.5; Arbovirus inh: -20.5; RecA intein inh: -0.3

What do the screens show for `CCOc1ccc(NC(=S)N(CCc2c(C)[nH]c3ccc(C)cc23)Cc2ccco2)cc1`?
Mtb betalactam: 1.4; YopH PTP inh: -23.2; Arbovirus inh: 4.1; RecA intein inh: 4.6

What do the screens show for `CN(CC1CCCN(CCc2cccc(C(F)(F)F)c2)C1)C(=O)c1ccco1` (stereo not given)?
Mtb betalactam: 7.5; RecA intein inh: -1.4

What do the screens show for `CCC(=O)Nc1cccc(C2=NOC3(C2)C[C@@H](C(N)=O)N(C(=O)C2(C)CC2)C3)c1` (stereo not given in full)?
Mtb betalactam: -5.1; Mtb H37Rv: -7.5%; RecA intein inh: 2.1

How did Cc1[nH]c(=O)c(Cc2ccccc2)c(O)c1C#N do in these assays?
Mtb betalactam: -7.0; RecA intein inh: -0.5

What do the screens show for `Cc1cccc(N/N=C/c2ccc(C)s2)c1`?
Mtb betalactam: 81.0; RecA intein inh: 0.3

What do the screens show for `O=C(Nc1cccc(C(F)(F)F)c1)c1c(O)c2ccccc2[nH]c1=O`?
Mtb betalactam: -9.3; RecA intein inh: 1.2

Results for O=C(NCC1CCCO1)c1csc(Nc2cccc3ccccc23)n1 (stereo not given) ?
Mtb betalactam: 4.5; Mtb H37Rv: -8.6%; Arbovirus inh: -3.0; RecA intein inh: 7.1

How did O=S1(=O)C=C(SCc2ccc(F)cc2)Nc2ccccc21 do in these assays?
Mtb betalactam: 0.8; Mtb H37Rv: 6.9%; Arbovirus inh: 9.0; RecA intein inh: 0.2

Results for Cn1cccc1Cc1nnc(SCC(=O)Nc2cccc(F)c2)n1-c1ccc(F)cc1 ?
Mtb betalactam: -7.1; YopH PTP inh: -9.3; Mtb H37Rv: 4.5%; Arbovirus inh: -4.2; RecA intein inh: -2.0

What do the screens show for `O=C(O)Cc1cc2c(s1)CCCCC2`?
Mtb betalactam: 15.8; YopH PTP inh: 6.0; Mtb H37Rv: -4.2%; Arbovirus inh: 0.8; RecA intein inh: -1.1

How did Cc1cc(C(=O)O/N=C(\N)c2ccncc2)ccc1[N+](=O)[O-] do in these assays?
Mtb betalactam: 18.1; Mtb H37Rv: 3.6%; RecA intein inh: 0.2

What do the screens show for `COc1ccccc1NC(=O)Cc1nnc(SCC(=O)Nc2ccccc2F)n1C`?
Mtb betalactam: -6.2; Mtb H37Rv: -5.6%; Arbovirus inh: 1.1; RecA intein inh: 0.5

What do the screens show for `O=C(CN1CCN(c2ccccn2)CC1)Nc1nc2ccccc2s1`?
Mtb betalactam: 10.5; RecA intein inh: 0.3

Results for N#Cc1c(NC(=O)CSc2ncn[nH]2)sc2c1CCCC2 ?
Mtb betalactam: 79.2; YopH PTP inh: -26.7; Mtb H37Rv: -11.3%; Arbovirus inh: 0.4; RecA intein inh: 3.0

Results for CCCC1CC(=O)OC1(C)C(=O)CSc1n[nH]c(-c2ccccc2)n1 (stereo not given) ?
Mtb betalactam: 7.2; YopH PTP inh: -19.8; Mtb H37Rv: -10.6%; Arbovirus inh: 1.3; RecA intein inh: 1.8

What do the screens show for `Cc1ccnc(NC(=O)CCC(=O)N(CC(=O)NCCc2ccccc2)Cc2cccs2)c1`?
Mtb betalactam: 0.1; Mtb H37Rv: 2.9%; Arbovirus inh: 1.1; RecA intein inh: -3.0

What do the screens show for `Cc1ccc(NC(=O)CN(C)C(=O)CCOc2cccc(C)c2)cc1`?
Mtb betalactam: 1.7; YopH PTP inh: -7.4; Mtb H37Rv: -1.0%; Arbovirus inh: 1.7; RecA intein inh: -1.7

How did COc1cc(-c2noc(C3CCCN(S(=O)(=O)c4cccc(Cl)c4)C3)n2)cc(OC)c1OC (stereo not given) do in these assays?
Mtb betalactam: 5.0; YopH PTP inh: 0.7; Mtb H37Rv: 4.3%; Arbovirus inh: -0.2; RecA intein inh: -1.5

What do the screens show for `CCN1CCN(C(=O)c2ccc(COc3ccc(Cl)cc3)o2)CC1`?
Mtb betalactam: -1.2; YopH PTP inh: 16.7; Mtb H37Rv: 4.2%; Arbovirus inh: -3.5; RecA intein inh: -2.4

Results for CCCCC(=O)NCc1ccc2c(c1)cc(C)n2C ?
Mtb betalactam: 4.9; YopH PTP inh: -13.9; Mtb H37Rv: -8.4%; Arbovirus inh: -5.5; RecA intein inh: 1.6

Results for Cc1ccc(S(=O)(=O)Nn2c(C)ccc2C)cc1 ?
Mtb betalactam: 26.2; YopH PTP inh: -15.2; Mtb H37Rv: 0.9%; Arbovirus inh: 10.4; RecA intein inh: -0.3

How did N#CCCN(C(=O)COC(=O)Cc1c[nH]c2ccccc12)c1ccccc1 do in these assays?
Mtb betalactam: 0.1; RecA intein inh: -0.1

Results for CC(=O)N1CCN(c2nnnn2-c2ccccc2)CC1 ?
Mtb betalactam: -18.9; YopH PTP inh: -15.4; Mtb H37Rv: -6.8%; Arbovirus inh: 7.2; RecA intein inh: -3.0

How did O=C(CCCOc1ccc(Br)cc1)Nc1ccc(S(=O)(=O)N2CCOCC2)cc1 do in these assays?
Mtb betalactam: -4.4; RecA intein inh: -2.0

Results for CN(C)CCn1c2c(c(SCC(=O)Nc3cccc(C(F)(F)F)c3)nc1=O)CCCC2 ?
Mtb betalactam: -6.9; RecA intein inh: 2.8

Results for O=[N+]([O-])c1cc([N+](=O)[O-])c(N2CCOCC2)cc1NCc1ccccc1 ?
Mtb betalactam: inconclusive; YopH PTP inh: -25.6; Mtb H37Rv: 3.8%; Arbovirus inh: -0.3; RecA intein inh: 5.7

How did Cc1cc(Nc2ccccc2Br)n2nc(C)nc2n1 do in these assays?
Mtb betalactam: -3.4; YopH PTP inh: -16.4; Arbovirus inh: -0.8; RecA intein inh: 1.1; Arbovirus inh repeat: -6.1

Compounds listed so far that have a Cl atom:
How did COc1cc(-c2noc(C3CCCN(S(=O)(=O)c4cccc(Cl)c4)C3)n2)cc(OC)c1OC (stereo not given) do in these assays?
Mtb betalactam: 5.0; YopH PTP inh: 0.7; Mtb H37Rv: 4.3%; Arbovirus inh: -0.2; RecA intein inh: -1.5

What do the screens show for `CCN1CCN(C(=O)c2ccc(COc3ccc(Cl)cc3)o2)CC1`?
Mtb betalactam: -1.2; YopH PTP inh: 16.7; Mtb H37Rv: 4.2%; Arbovirus inh: -3.5; RecA intein inh: -2.4

Further entries follow:
What do the screens show for `Cc1csc(SCc2c(C(=O)O)oc3ccccc23)n1`?
Mtb betalactam: 12.0; YopH PTP inh: -41.5; Mtb H37Rv: -2.4%; Arbovirus inh: 0.9; RecA intein inh: 1.6

What do the screens show for `CCOCCCNC(=O)CCc1ccc(-n2cnc3cccnc32)cc1`?
Mtb betalactam: -5.9; RecA intein inh: -2.1

What do the screens show for `O=C(NCCc1cccs1)C12CN(Cc3ccccc3)CC1C(c1cccc([N+](=O)[O-])c1)=NO2` (stereo not given)?
Mtb betalactam: -4.7; YopH PTP inh: -25.8; Mtb H37Rv: 6.0%; Arbovirus inh: 12.4; RecA intein inh: 8.5

How did Cc1ccc(C(=O)N/C(=C/c2ccccc2)C(=O)NCc2ccncc2)cc1 do in these assays?
Mtb betalactam: -8.1; Mtb H37Rv: -3.2%; RecA intein inh: -0.2

Results for Cc1oc(-c2ccccc2F)nc1CSCC(=O)NC1CCCC1 ?
Mtb betalactam: -1.5; RecA intein inh: 1.9

What do the screens show for `C/C(=N/NC(=O)CCCOc1ccc(Cl)cc1Cl)c1ccc(C)o1`?
Mtb betalactam: 0.1; YopH PTP inh: -22.3; Mtb H37Rv: 8.5%; Arbovirus inh: -11.2; RecA intein inh: 0.4

How did Cc1ccccc1CNCc1cccnc1 do in these assays?
Mtb betalactam: -14.6; YopH PTP inh: -2.4; Mtb H37Rv: -1.9%; Arbovirus inh: 3.7; RecA intein inh: -4.0

What do the screens show for `Cc1nnc(NC(=O)CSc2nnc(-c3ccccc3)n2C)s1`?
Mtb betalactam: -1.9; Mtb H37Rv: -21.9%; Arbovirus inh: 4.9; RecA intein inh: -1.1

How did CC(=O)N1CCN=C1SCc1ccc(Br)cc1 do in these assays?
Mtb betalactam: 3.1; YopH PTP inh: -17.7; Mtb H37Rv: 3.6%; Arbovirus inh: 7.0; RecA intein inh: 6.2

How did OCC1(C2=NOC(O)(C(F)(F)F)C2)CCCCC1 (stereo not given) do in these assays?
Mtb betalactam: -19.8; YopH PTP inh: -16.4; Mtb H37Rv: -2.4%; Arbovirus inh: 13.3; RecA intein inh: 1.6; Arbovirus inh repeat: 4.3

How did O=C(Cn1cnc2cc([N+](=O)[O-])ccc2c1=O)Nc1ccc2c(c1)OCO2 do in these assays?
Mtb betalactam: -1.9; Mtb H37Rv: 0.2%; Arbovirus inh: -3.6; RecA intein inh: -1.7

Results for CCOc1ccccc1Nc1nc(-c2sc(NC(=O)c3ccccc3)nc2C)cs1 ?
Mtb betalactam: -3.4; YopH PTP inh: -27.0; Mtb H37Rv: -6.3%; Arbovirus inh: -13.1; RecA intein inh: -0.6

How did CCc1nnc(NS(=O)(=O)c2ccc(NS(=O)(=O)c3ccc(NC(C)=O)cc3)cc2)s1 do in these assays?
YopH PTP inh: -46.3; Mtb H37Rv: -5.1%; Arbovirus inh: 1.1

Results for COc1ccc(NC(=O)CN2C(=O)COc3ccc(S(=O)(=O)N4CCCCCC4)cc32)cc1 ?
Mtb betalactam: -5.9; RecA intein inh: -2.0

How did CCc1ccc(-c2cc3c(=O)n(CC(=O)NCCCN4CCN(CC)CC4)nc(C)n3n2)cc1 do in these assays?
Mtb betalactam: -5.2; RecA intein inh: -1.6

What do the screens show for `CCN(CC)C(=O)c1[nH]cnc1C(=O)N[C@@H](C)C(=O)OCc1ccccc1`?
Mtb betalactam: -20.6; Mtb H37Rv: -10.2%; Arbovirus inh: 2.4; RecA intein inh: -1.4

What do the screens show for `O=[N+]([O-])c1cccc(NC(=S)N2CCN(S(=O)(=O)c3ccccc3)CC2)c1`?
Mtb betalactam: -4.2; RecA intein inh: 1.3

Results for CCN(CC)c1ccc(N=Cc2cc(Br)ccc2O)cc1 ?
Mtb betalactam: 1.0; Mtb H37Rv: -10.9%; Arbovirus inh: 5.4; RecA intein inh: -2.2

How did Cc1ccccc1-c1nn(-c2ccc(F)cc2F)cc1CNCCCN(C)C do in these assays?
Mtb betalactam: -2.0; Mtb H37Rv: -3.1%; Arbovirus inh: -23.5; RecA intein inh: 2.4

What do the screens show for `O=C(CN1C(=O)NC2(CCCC2)C1=O)Nc1ccc(F)cc1`?
Mtb betalactam: 13.8; YopH PTP inh: -6.0; Mtb H37Rv: -0.7%; Arbovirus inh: 0.3; RecA intein inh: -3.6

How did CCOC(=O)c1c(C)[nH]c(N=Nc2ccccc2)c1C do in these assays?
Mtb betalactam: 99.6; YopH PTP inh: -8.6; Mtb H37Rv: 3.6%; Arbovirus inh: 2.2; RecA intein inh: -0.7

What do the screens show for `CCC(C)[C@H](NC(=O)C1CCN(C(=O)[C@H](Cc2ccccc2)NC(=O)OC(C)(C)C)CC1)C(=O)O` (stereo not given in full)?
Mtb betalactam: inconclusive; RecA intein inh: 0.0

Results for COc1ccc(NC(=O)c2cccc(N3C(=O)C4CCC(C)CC4C3=O)c2)c(OC)c1 (stereo not given) ?
Mtb betalactam: -4.2; RecA intein inh: 1.2

What do the screens show for `CCn1c(=O)cc(OCC(=O)Nc2nc(C)cs2)c2ccccc21`?
Mtb betalactam: -3.0; YopH PTP inh: -27.4; Mtb H37Rv: -0.3%; Arbovirus inh: 1.0; RecA intein inh: -0.3; Arbovirus inh repeat: -7.2

What do the screens show for `CCCc1nnc(NC(=O)CCC(=O)N2CCN(S(=O)(=O)c3ccc(F)cc3)CC2)s1`?
Mtb betalactam: -4.1; Mtb H37Rv: 3.0%; RecA intein inh: 10.1

How did COc1ccccc1NC(=O)c1ccc(-c2ccccc2F)o1 do in these assays?
Mtb betalactam: 62.2; YopH PTP inh: -10.6; Mtb H37Rv: 7.3%; Arbovirus inh: -2.0; RecA intein inh: -0.8

What do the screens show for `COc1ccc(C)cc1NC(=O)C1CCN(C(=O)c2ccc(C(C)(C)C)cc2)CC1`?
Mtb betalactam: 1.8; RecA intein inh: 1.1

What do the screens show for `CCOc1ccc(S(=O)(=O)N2CCN(C(=O)c3ccncc3)CC2)cc1`?
Mtb betalactam: -3.8; RecA intein inh: 5.6

What do the screens show for `Cc1ccc2nc(Nc3ccccc3)c(C=O)c(=O)n2c1`?
Mtb betalactam: 4.3; RecA intein inh: 1.2

Some of the compounds tested, so the mix of outcomes need not match the whole.
